# TsaE inh – YjeE (TsaE) inhibition, E. coli; P0AF67; purified YjeE, fluorescence polarisation of a bound ADP probe; Potency, µM; 71,000 tested, 0.05% active; active = well fitted falling curve; inconclusive = weaker or top-dose-only fall, or a rising curve; inactive = flat or poorly fitted curve;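 note: top concentration of the series not given in the record; excess ADP was the control for the full effect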
#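 Fluorescence polarization of a BODIPY Texas Red–ADP probe (2 uM) bound to purified YjeE (10 uM) was read after 15 min room-temperature incubation with compounds. Loss of polarization marks inhibitors; ADP serves as titrated control.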
# PK Bst – pyruvate kinase (B. stearothermophilus) modulation; partly purified Bacillus stearothermophilus pyruvate kinase, luminescence ATP production; ribose 5-phosphate activator present at AC10; Potency, µM; 51,000 tested, 1.2% active; in the data active means potency below about 11 µM; inconclusive means mostly about 12 µM to 25 µM; inactive means weaker than that;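 the screen sought inhibitors and activators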;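 note: potency is the fitted concentration of half-maximal effect; scaled between full activation by ribose 5 phosphate and full inhibition by luteolin; about four in five hits inhibit and the cells do not say which; series up to 57 µM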
# The depositor's hits bear a star; i = inactive; ? = inconclusive; . = no result given. This is a subset, so the mix of outcomes need not match the whole.
# Results follow in this order: TsaE inh | PK Bst
CC(C)(C)c1ccc(-c2nnc3sc(-c4ccccn4)nn23)cc1
 : i | .
O=C(CSc1nc2ccccc2c(=O)[nH]1)N1CCCCC1
 : i | .
COc1ccc(N2C(=O)CCC2=O)cc1
 : i | .
CCN(CCCNC(=O)C1CCC(=O)N1Cc1ccc(F)cc1)c1cccc(C)c1 (stereo not given)
 : i | >57
CCn1c(SCC(=O)C(C)(C)C)nnc1-c1cccnc1
 : i | >57
COc1cccc(NC(=O)c2ccc(CN3CCN(c4ccccc4)CC3)cc2)c1
 : i | >57
O=C(CCSc1nnc(-c2ccncc2)o1)Nc1ccc(Cl)cc1
 : i | >57
CCn1cc(C(=O)O)c(=O)c2cc(OC)ccc21
 : i | >57
CC1(c2ccc3c(c2)OCO3)NC(=O)N(CC(=O)NCCC2=CCCCC2)C1=O (stereo not given)
 : i | >57
CC1=Nc2ccccc2N=C(NC(=O)CSc2nnnn2-c2ccccc2)C1c1ccccc1 (stereo not given)
 : i | >57

# Other records follow:
# Results follow in this order: TsaE inh | PK Bst
O=C(NCCCn1ccnc1)c1cn(Cc2ccc(F)cc2)nn1
 : i | >57
C=CCSC1=N/C(=C\c2cc(OC)c3c(c2)OCO3)C(=O)S1
 : i | .
CCCCOc1cccc(C(=O)Nc2ccc(N3CCN(CC)CC3)cc2)c1
 : i | >57
COc1ccc(C)c(Cn2c(-c3nonc3N)nc3ccccc32)c1
 : i | >57
O=S(=O)(c1ccccc1)N1CN2CN(C1)CN(S(=O)(=O)c1ccccc1)C2
 : i | .
CCc1c(C(=O)N2CCOCC2)csc1C
 : i | >57
CC1=CC(=C2C(=O)c3ccccc3C2=O)C=C(C)N1Cc1ccco1
 : i | ?
CCC(=O)Nc1ccc(C(=O)c2ccccc2)cc1
 : i | .
CC(C)(C)NC(=O)C(c1ccco1)N(Cc1ccc(F)cc1)C(=O)c1snc(C(N)=O)c1N (stereo not given)
 : i | >57
COc1ccccc1-c1nn2c(-c3ccco3)nnc2s1
 : . | 8.2*

# The results go on:
# Results follow in this order: TsaE inh | PK Bst
COc1cccc(OC)c1NC(=O)Cc1nn(C)c(=O)c2ccccc12
 : i | >57
Cc1c(CNCc2cccs2)c(C(=O)O)c(C)n1Cc1ccccc1
 : i | >57
CCCCCN(CCCCC)C(=O)[C@H](CCC(=O)O)NC(=O)c1ccc(Cl)c(Cl)c1
 : i | .
O=C(Cc1ccccc1)Nc1ccccc1N1CCN(c2ccccc2)CC1
 : i | >57
O=C(O)c1cc2c(s1)CCCC2
 : i | >57
CCOC(=O)CSc1nc2ccccc2n1CC(=O)NC(C)(C)C
 : i | >57
N#Cc1ccc(COC(=O)CSc2nnc(C3CCCCC3)n2N)cc1
 : i | >57
COc1cc(C2C(C#N)=C(N)Oc3n[nH]c(C)c32)cc2c1OCO2 (stereo not given)
 : i | >57
CN(C)CCNc1oc(COc2cccc(Cl)c2)nc1C#N
 : i | >57
Cc1cn(C2CC3OCC3O2)c(=O)[nH]c1=O (stereo not given)
 : i | >57

# Continued:
# Results follow in this order: TsaE inh | PK Bst
N#CCc1ccc(NS(=O)(=O)c2cccs2)cc1
 : i | .
CSc1nsc(SC)c1NC(=O)Nc1ccccn1
 : i | >57
COCCNc1ncnc2ccc(-c3c(C)noc3C)cc12
 : i | .
COc1ncc2nc(-c3ccc(Cl)cc3)c(=O)n(C[C@H]3CCCO3)c2n1
 : i | .
CC(C)CCNC(=O)Cn1cc2c(n1)CCCCC2
 : i | .
COC(=O)C1CCN(c2cc(=O)n(-c3ccc(OC)cc3)c(=O)[nH]2)CC1
 : i | .
COc1ccc(C(=O)OCn2nnc3ccccc3c2=O)cc1OC
 : i | >57
CCOc1ccc(C2c3c(oc4ccccc4c3=O)C(=O)N2CCCN2CCOCC2)cc1OCC (stereo not given)
 : i | .
COC(=O)CN(Cc1ccco1)S(=O)(=O)c1ccccc1
 : i | >57
COCc1cc(C)nc2sc3c(=O)oc(C)nc3c12
 : i | >57

# One compound at a time (already shown). Values in the order: TsaE inh	PK Bst
# Listed for COC(=O)C1CCN(c2cc(=O)n(-c3ccc(OC)cc3)c(=O)[nH]2)CC1 → i	.
# Listed for COc1ccc(C(=O)OCn2nnc3ccccc3c2=O)cc1OC → i	>57
# Listed for CCOc1ccc(C2c3c(oc4ccccc4c3=O)C(=O)N2CCCN2CCOCC2)cc1OCC (stereo not given) → i	.
# Listed for COC(=O)CN(Cc1ccco1)S(=O)(=O)c1ccccc1 → i	>57
# Listed for N#CCc1ccc(NS(=O)(=O)c2cccs2)cc1 → i	.

# More entries follow:
# Results follow in this order: TsaE inh | PK Bst
O=c1[nH]c2sc3c(c2c2nncn12)CCCC3
 : i | >11
CC1CC(C)CN(CCCNC(=O)c2ccc3c(c2)NC(=O)C(N2CCCCC2)S3)C1 (stereo not given)
 : i | >57
COc1cc(C(=O)NCc2nnc(SCC(=O)N3CCc4ccccc43)o2)cc(OC)c1OC
 : i | >57
O=C(NCCCN=C1NS(=O)(=O)c2ccccc21)c1ccc(S(=O)(=O)N2CCCCC2)cc1
 : i | >57
CCCc1nnc(NC(=O)c2cccc(OC)c2)s1
 : i | >57
COc1ccc(-c2nc3oc4cc(OC)ccc4c(=O)c3c(=O)n2Cc2ccco2)cc1
 : i | >57
COc1ccc2[nH]cc(CCNc3ccnc(-c4c(C)noc4C)n3)c2c1
 : i | .
CC(=O)n1cc(C2C(=O)CC(C)(C)CC2=O)c2ccccc21
 : i | .
COC(=O)N1[C@H](C)C=C[C@]1(Cc1ccccc1)C(=O)NCc1ccc(N(C)C)cc1
 : i | .
CCOC(=O)c1sc2nc3n(c(=O)c2c1C)CCC(C)CC3 (stereo not given)
 : i | >57

# (more compounds)
# Results follow in this order: TsaE inh | PK Bst
CCOC(=O)C(NC(C)=O)(N1CCOCC1)C(F)(F)F (stereo not given)
 : i | >57
CCOC(=O)N1CCC(N2CC34C=CC(O3)C(C(=O)Nc3ccc(OCC)cc3)C4C2=O)CC1 (stereo not given)
 : i | .
N=c1sccn1CC(=O)Nc1ccc2c(c1)CCC2
 : i | >57
CCNc1nc(NC(C)C)nc(N(C#N)CCOc2ccc(Cl)cc2Cl)n1
 : i | >57
C1=CC2C3C=CC(C3)C2C1 (stereo not given)
 : i | .
COc1cccc(-n2c(C)nnc2SCC#N)c1
 : i | >57
CCCc1cc(C(=O)Cc2ccc(F)cc2)c(O)cc1O
 : . | >26
COc1ccccc1N1CCN(CCN(C(=O)c2ccc(F)cc2)c2ccccn2)CC1
 : i | .
Nc1nc2n(n1)C(c1ccccc1Cl)CC(c1ccc(F)cc1)N2 (stereo not given)
 : i | .
CN(c1ccc(C(=O)NCCC2=CCCCC2)cc1)S(C)(=O)=O
 : i | .

# Later entries
compound	TsaE inh	PK Bst
Cc1cc(=O)n2nc(N3CCCC(C(=O)NCc4ccco4)C3)sc2n1 (stereo not given)	i	>57
O=C(NCc1ccc2c(c1)OCO2)c1nn2cccnc2c1Cl	i	>57
CCOC(=O)c1ccc(NS(=O)(=O)c2ccc(SC)cc2)cc1	i	>57
O=S(=O)(c1cccc(-c2nn3c(-c4ccncc4)nnc3s2)c1)N1CCOCC1	i	>57
COc1ccc(-c2ccc(-c3nnn(CC(C)=O)n3)cc2)cc1	i	>11
COc1ccc(NC2c3ccccc3C(=O)N2c2cccnc2)cc1Cl (stereo not given)	i	.
c1cnc(N2CCN(Cc3c[nH]c4ccccc34)CC2)nc1	i	>57
COCC(C)NC(=O)c1ccc(N(C)C)cc1 (stereo not given)	i	.
CCOc1ccccc1C(=O)NCCC(=O)O	i	>57
O=C(Nc1ccc(NC(=O)C2CC2)nc1)c1cccc(F)c1	i	>57
O=C(COc1ccccc1)N1CCN(c2nnc(-c3ccccc3)c3ccccc23)CC1	i	>57
CC(C)(Oc1ccc(Cl)cc1)C(=O)O	i	.
Cc1ccc(S(=O)(=O)CC(C)N2CCOCC2)c(S(=O)(=O)CC(C)N2CCOCC2)c1 (stereo not given)	i	.
CCN(CC)S(=O)(=O)c1cccc(C(=O)Nc2cccnc2)c1	i	>57
C/C=C\C[C@H](C)[C@H](O)[C@H]1C(=O)N[C@@H](CC)C(=O)N(C)CC(=O)N(C)[C@@H](CC(C)C)C(=O)N[C@@H](C(C)C)C(=O)N(C)[C@@H](CC(C)C)C(=O)N[C@@H](C)C(=O)N[C@@H](C)C(=O)N(C)[C@@H](CC(C)C)C(=O)N(C)[C@@H](CC(C)C)C(=O)N(C)[C@@H](C(C)C)C(=O)N1C	i	.

# (further entries)
compound	TsaE inh	PK Bst
CC(C)(C)C(=O)C1C(=O)c2ccccc2C1=O	i	.
COC(=O)[C@H](C)NC(=O)Nc1cccc(C(F)(F)F)c1	i	>57
O=C(C1CC1)N1CCc2cc(S(=O)(=O)N(CCO)Cc3ccccc3)ccc21	i	>57
COc1ccc(N2CC(C(=O)Nc3ccc(F)cc3F)CC2=O)cc1 (stereo not given)	i	.
O=C(O)c1nnsc1COCc1ccccc1	i	.
COc1ccc(-c2ccc(Nc3ccc(S(=O)(=O)N4CCCC4)cc3)nn2)cc1OC	i	>57
CCOCCCNS(=O)(=O)c1cc(Br)cc2c1N(C(=O)C1CC1)CC2	i	>57
COc1ccc(N2C(=O)C3CCCN3C2c2cccc(C)c2)cc1 (stereo not given)	i	.
Cc1ccc(-c2nn3nnnc3c3ccccc23)cc1	i	>57
CCOC(=O)c1cc(C)sc1N1C(=O)C2C3C=CC(C3)C2C1=O (stereo not given)	i	>57
CCN(CCCNC(=O)c1c(C)cc(=O)oc1C)c1ccccc1	i	>57
COCCN1Cc2cccc(C(=O)Nc3ccc(C)c(C)c3)c2C1=O	i	.
CCCc1cc(=O)[nH]c(Nc2ccc(OC)c(Cl)c2)n1	i	>57
CCCn1c(CN2CCCCC2CC)nc2c1c(=O)n(C)c(=O)n2C (stereo not given)	i	.
CC1CN(C(=O)c2ccc(C(=O)c3ccccc3)cc2)CC(C)O1 (stereo not given)	i	>57

# Marked active in PK Bst, among the entries above:
compound	TsaE inh	PK Bst
COc1ccccc1-c1nn2c(-c3ccco3)nnc2s1	.	8.2*

# The listing continues.
compound	TsaE inh	PK Bst
CN(C)c1nc(SCC#N)nc(N(C)C)n1	i	>57
CO[C@@]1(NC(=O)CSCC#N)C(=O)N2C(C(=O)O)=C(CSc3nnnn3C)CS[C@@H]21	.	>11
COc1cccc(N2C(=O)Nc3ccccc3C2(O)C(=O)NCc2ccc3c(c2)OCO3)c1 (stereo not given)	i	>57
COc1ccc(C(CC(=O)O)NC(=O)c2ccccc2)cc1OC (stereo not given)	i	>57
CCC(C)NC(=O)C1c2ccccc2C(=O)N1Cc1ccccc1OC (stereo not given)	i	>57
COCCNC(=O)CN(c1cc(Cl)ccc1OC)S(C)(=O)=O	i	>57
Cc1ccc(OCc2nnc(SCC(=O)c3ccccc3)n2Cc2ccco2)cc1	i	>57
Cc1cc(C)nc(SCC(=O)Nc2ccc(S(=O)(=O)Nc3onc(C)c3C)cc2)n1	i	.
COC(=O)Cn1c(CCS(=O)(=O)c2ccc(C)c(C)c2)nc2ccccc21	i	.
Cc1cccn2c(=O)c3cc(C(=O)NCc4cccnc4)c(=N)n(C(C)C)c3nc12	i	>57
O=C(C1COc2ccccc2O1)N1CCN(c2ccc(F)cc2)CC1 (stereo not given)	i	>57
N#CCCn1c(=O)c(-c2ccc(F)cc2)nc2cnc(Oc3ccccc3)nc21	i	.
COc1ccc(N2CCN(Cc3nc4c(c(=O)n(C)c(=O)n4C)n3Cc3ccccc3C)CC2)cc1	i	.
O=C1c2ccccc2C(Nc2ccc(Cl)cn2)N1c1ccccn1 (stereo not given)	i	.
CCc1ccc(NC(=O)C2CC(=O)N=C(N)S2)cc1 (stereo not given)	i	>57

# The listing continues:
compound	TsaE inh	PK Bst
N#CC1=C(N)C(C#N)(C#N)[C@H](c2ccncc2)[C@H]2CC3(CC=C12)OCCO3	i	>57
CC(=O)c1ccc(OCC(C)C)c(CC(C(N)=O)C(N)=O)c1	i	.
COc1ccc(C(=O)Nc2cc(Cl)ccc2Cl)c(OC)n1	i	>57
CN1CC[n+]2cnc3ccccc3c21	i	>57
COc1ccc(S(=O)(=O)N2CCN(c3cc(-c4ccccc4)nc4ncnn34)CC2)cc1	i	>57
COC(=O)Cn1c(CN2CCOCC2)nc2c1c(=O)[nH]c(=O)n2C	i	.
COc1cccc(-c2cc(C(=O)N3CCc4ccccc4C3)no2)c1	i	>57
Nc1cc(=O)[nH]c(SCC(=O)Nc2ccc(Br)cc2)n1	i	>57
COc1ccc(Cn2nnc3c(=O)[nH]c(C4CCCN(C(=O)c5ccccc5)C4)nc32)cc1 (stereo not given)	i	.
CC(=O)NC(Cc1ccc(F)cc1)C(=O)O (stereo not given)	i	>57
OC(CN1CCCCC1)Cn1c(C(F)(F)F)nc2ccccc21 (stereo not given)	i	>57
C[C@@H]1C=C[C@](Cc2ccccc2)(C(=O)O)N1C(=O)c1ccccc1	i	.
O=C(COC(=O)c1n[nH]c2ccccc12)Nc1ccc(S(=O)(=O)N2CCCC2)cc1	i	>57
CCOC(=O)C1C(=O)CC(C)(O)C(C(=O)OCC)C1c1ccc2c(c1)OCO2 (stereo not given)	i	.
CCc1ccc(NC(=O)c2cc(-c3ccc(OC)cc3)on2)cc1	i	>57
Cc1ccc(C)c(N2CCN(Cc3nnnn3C3CCCCC3)CC2)c1	i	>57
Cc1ccc(CNC(=O)CCCNC(=O)c2ccc(Cl)cc2)n1C	i	>57

# Exported with each value named: entries from further up.
CC(=O)NC(Cc1ccc(F)cc1)C(=O)O (stereo not given)
  TsaE inh: i
  PK Bst: >57

OC(CN1CCCCC1)Cn1c(C(F)(F)F)nc2ccccc21 (stereo not given)
  TsaE inh: i
  PK Bst: >57

C[C@@H]1C=C[C@](Cc2ccccc2)(C(=O)O)N1C(=O)c1ccccc1
  TsaE inh: i
  PK Bst: .

O=C(COC(=O)c1n[nH]c2ccccc12)Nc1ccc(S(=O)(=O)N2CCCC2)cc1
  TsaE inh: i
  PK Bst: >57

# Bioassay records from PubChem BioAssay.
